Compound activity (PubChem BioAssay)
miR-21 reporter = qHTS Assay for Modulators of miRNAs and/orActivators of miR-21; HeLa miR-21 FLuc reporter, luciferase, 48 h; Potency, µM (highest dose often 38.3 µM), for the others: at the highest dose reporter change, positive = more light; 340,000 tested, under 10 active; active = well fitted rising curve with a large enough effect; inconclusive = small, poorly fitted or top-dose-only effect; inactive = no such curve, though single readings can be large or run the other way;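 note: % of control where 0% means no effect; miR-21 action dims this reporter so a rising signal means less miR-21 action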
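HeLa cells endogenously expressing miR-21, stably carrying CMV-driven firefly luciferase with a downstream miR-21 binding site, 2000 cells/well. Titrations up to approximately 40 uM, 48 hours; luciferase luminescence read.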
Rango-impB inh = qHTS Assay for Inhibitors of Rango (Ran-regulated importin-beta cargo) - Importin beta complex formation; Potency, µM (titrated, usually from 92.2 µM), inactives show at the top dose inhibition of complex formation; Importin subunit beta-1 (Homo sapiens), Q14974; 340,000 compounds, 0.031% hits; Rango CFP/YFP FRET sensor + importin beta, 45 min; active = rising FRET ratio curve, often small or poorly fitted; inconclusive = mostly compound fluorescence or quenching in the first reads; inactive = flat curves in all reads;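 note: potency is the fitted concentration of half-maximal effect; 0% = DMSO wells and 100% = buffer wells lacking importin beta; nearly all actives have a fitted effect of over 15% in size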
Target sequence (Q14974 whole entry, looked up): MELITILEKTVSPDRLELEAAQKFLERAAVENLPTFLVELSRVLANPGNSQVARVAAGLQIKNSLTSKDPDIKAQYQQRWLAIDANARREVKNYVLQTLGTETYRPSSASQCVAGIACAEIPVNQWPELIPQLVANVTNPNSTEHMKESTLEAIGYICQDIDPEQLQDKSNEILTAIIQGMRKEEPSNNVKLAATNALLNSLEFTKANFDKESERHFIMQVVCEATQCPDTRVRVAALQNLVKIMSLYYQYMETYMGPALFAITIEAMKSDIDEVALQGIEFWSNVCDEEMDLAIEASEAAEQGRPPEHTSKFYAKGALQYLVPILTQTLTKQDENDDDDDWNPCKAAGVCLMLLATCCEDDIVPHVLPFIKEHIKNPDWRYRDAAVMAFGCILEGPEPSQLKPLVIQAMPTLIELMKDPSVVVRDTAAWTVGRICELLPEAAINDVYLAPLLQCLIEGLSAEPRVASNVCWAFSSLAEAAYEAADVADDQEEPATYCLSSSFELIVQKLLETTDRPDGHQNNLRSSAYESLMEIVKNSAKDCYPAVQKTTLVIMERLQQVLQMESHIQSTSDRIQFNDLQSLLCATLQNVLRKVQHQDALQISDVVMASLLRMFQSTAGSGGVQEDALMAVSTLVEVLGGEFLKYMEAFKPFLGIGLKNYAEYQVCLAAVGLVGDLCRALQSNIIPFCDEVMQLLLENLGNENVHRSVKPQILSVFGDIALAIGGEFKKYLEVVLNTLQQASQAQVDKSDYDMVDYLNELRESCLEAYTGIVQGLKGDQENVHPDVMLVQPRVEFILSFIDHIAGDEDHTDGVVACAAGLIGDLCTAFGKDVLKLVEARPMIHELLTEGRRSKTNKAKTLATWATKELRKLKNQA
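Inhibition scored from the CFP 486 nm/YFP 530 nm FRET ratio 45 min after adding 0.125 microM importin beta to 50 nM Rango biosensor preincubated 5 min with compound (room temperature, PBS with DTT, Tween-20, BSA). No-importin wells as positive control.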
Rango dissoc inh = qHTS Assay for Inhibitors of RanGTP induced Rango (Ran-regulated importin-beta cargo) - Importin beta complex dissociation | Snurportin-1 (Homo sapiens) + GTP-binding nuclear protein Ran (Homo sapiens) + Importin … | Biochemical FRET Rango-importin beta, RanGTP-induced dissociation | Potency, µM (titrated, usually from 46.1 µM), for the others: top-dose activity change, negative = inhibition | 340,000 compounds, 0.071% hits; active means falling FRET ratio curve, often poorly fitted, with flat reads before Ran was added; inconclusive means other falling curves, or compound fluorescence or quenching; inactive means flat or rising ratio curve;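 note: potency is the fitted concentration of half-maximal effect; % of control where 0% means no effect; nearly all actives have a fitted effect of over 45% in size; -100% = wells without RanGTP and RCC1; the record marks most hits as doubtful in a second field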
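FRET read at 45 min, room temperature: inhibitors block the CFP/YFP signal rise when RanGTP (0.6 uM Ran, 2 mM GTP, 0.2 uM RCC1) frees Rango (0.1 uM) from importin beta (0.25 uM). Pre-read after 5 min compound exposure flags interference.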
GLA inh pH 4.5 = qHTS Assay for Inhibitors of Human alpha-Galactosidase at pH 4.5; purified enzyme, 4-MU-alpha-Gal fluorescence, pH 4.5; activity change, negative = inhibition, % at 105 µM; 230,000 tested, under 10 active; AID 1467, 2008; inconclusive = small, poorly fitted or top-dose-only inhibition, or a rising curve; inactive = flat fitted curve, though single readings scatter; no compound was filed as active;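 note: 0% = full activity with enzyme and -100% = basal without enzyme; dose as in the result columns while the protocol names 77 µM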
Active calls of the source: *; ? = inconclusive; . = not tested or not shown; & = joins results of further samples; [ ] = dose if it differs, or a comment. An excerpt. The share of hits here may be higher or lower than overall.

Values in the order – miR-21 reporter | Rango-impB inh | Rango dissoc inh | GLA inh pH 4.5
- CN(CCOc1ccc(Cl)cc1)C(=O)c1cccc(S(=O)(=O)N2CCN(Cc3ccccc3)CC2)c1
→ . | 0.7% | -14% | .
- COc1ccc(NC2=CC(=O)CC(C)(C)C2)cc1OC
→ -1% | 3.5% | -1% | 4
- Cc1ccc2c(c1)-c1c(cnn1CC(=O)NC(C)CCc1ccco1)CO2 (configuration not stated)
→ -8% | 2.4% | -1% | 1
- COc1ccc(OC)c(-c2cc(C(=O)Nc3sc4c(c3C#N)CCC(C)C4)c3ccccc3n2)c1 (configuration not stated)
→ -3% | 1.4% | -1% | -4
- CCn1c(CCC(=O)Nc2ccccc2F)nnc1SCC(=O)Nc1ccc(OC)cc1
→ -2% | -4.7% | -5% | .
- O=C1CSc2ccc(S(=O)(=O)N3CCN(c4ccccc4F)CC3)cc2N1
→ 18% | 6.7% | 15% | .
- CN(C(=O)COC(=O)c1ccc2c(=O)n3c(nc2c1)CCC3)c1ccccc1
→ 0% | ? | -18% | 3
- CN(CC(=O)Nc1ccc(F)c(F)c1F)c1ncnc2sccc12
→ 0% | -4.7% | -1% | -3[21.1 µM]
- Cc1cccc(NC(=O)CNC(=O)CSc2ncccn2)c1C
→ . | 1.8% | -13% | .
- COc1ccccc1N1CCN(C(=O)c2cc3ccccc3[nH]2)CC1
→ -5% | -4.6% | 5% | .
- COc1ccc(S(=O)(=O)NCc2ccc(C(=O)N3CCN(c4ccccn4)CC3)cc2)cc1
→ -2% | 0.2% | -6% | 8
- COc1ccc(OC)c(CN2CCCCCC2)c1
→ -1% | 3.8% | 45% | .
- Cc1ccc(Cn2cc(SCC(N)=O)c3ccccc32)cc1
→ 3% | -1.4% | -18% | 8
- CCN(CC)CCNC(=O)c1ccc(NC(=O)c2c(F)cccc2Cl)cc1
→ 0% | 0.1% | 6% | -1
- COC(=O)C1=C(C)N(C)C(=O)NC1c1ccc(O)c(Cl)c1 (configuration not stated)
→ -2% | 2.9% | -14% | 8
- COc1ccc(CCC(=O)N2CCN(S(=O)(=O)c3ccc(C)cc3)CC2)cc1
→ . | 0.4% | -4% | .
- O=C(C1CCCN(S(=O)(=O)c2ccc(Br)cc2)C1)N1CCOCC1 (configuration not stated)
→ -3% | -3.8% | 2% | .
- Cc1ccc(CNC(=O)[C@@H](NC(=O)C2CCN(C(=O)[C@@H]3CCCN3)CC2)C(C)C)cc1
→ 1% | -0.5% | 8% | .
- CCS(=O)(=O)N1CCN(C(=O)c2ccc(-c3ccccc3)cc2)CC1
→ 5% | 0.7% | -14% | -4
- O=C(CCC(=O)N1CCN(S(=O)(=O)c2ccccc2)CC1)c1ccc(Br)cc1
→ . | -4.2% | 2% | .
- CN(C)C(=O)N1CCCC(C(=O)NCc2ccccc2)C1 (configuration not stated)
→ -3% | 1.8% | -1% | 0
- CNC(=O)OCCSCCS(=O)(=O)c1ccc(Cl)cc1
→ -4% | -0.6% | 11% | 1
- Cc1c(NC(=O)c2ccc(-c3cccc([N+](=O)[O-])c3)o2)c(=O)n(-c2ccccc2)n1C
→ 5% | -0.8% | -8% | -1
- COc1ccc(CC(=O)Nc2cc(C)c3c(=O)oc4ccccc4c3n2)cc1
→ 0% | ? | -8% | 0
- COc1ccccc1CNC(=O)C1(c2ccc(Cl)cc2)CC1
→ -6% | -3.4% | 0% | 0
- CC(=O)Oc1ccc2nc(-c3cccs3)oc(=O)c2c1
→ 3% | 0.8% | -21% | 10
- COc1ccc2[nH]c3c(c2c1)CCN1C(=O)C(CC(=O)NCc2ccc(OC)c(OC)c2)C[C@H](C(=O)N(C(C)C)C(C)C)[C@@]31C (some centres not stated)
→ . | 5.6% | 40% | .
- CCCCCc1c2c(cc(O)c1C(=O)O)OC(=O)c1c(cc(OC)cc1C(=O)CCCC)O2
→ 2% | 0.4% | 1% | -4&3
- Cc1ccc(CNC(=O)C(=O)NCC2OCCN2S(=O)(=O)c2ccc(C)cc2)cc1 (configuration not stated)
→ 0% | -0.1% | 25% | .
- O=C(O)CCN1C(=O)NC2(CCCC2)C1=O
→ 0% | ? | -11% | 3
- Cn1c(C(=O)NC2CC2)cc(=O)n(C)c1=O
→ 1% | -2.8% | -13% | 4
- CCCCN1C(=O)C(C(=O)OCc2ccccc2)CC2=C1CCCC2=O (configuration not stated)
→ . | 0.7% | 9% | .
- N/C(=N\NC(=O)c1cccs1)c1cc2ccccc2oc1=O
→ -29% | ? | -20% | 5
- CC(Cc1c[nH]c2ccccc12)NC(=O)C1CCCNC1=O (configuration not stated)
→ 2% | -4.7% | -3% | 3
- Cc1ccc(C(=O)N(CC#N)CC#N)cc1C
→ 0% | 1.5% | 1% | 7
- CC1CN(C(=O)c2cccc(S(=O)(=O)N3CCN(c4ccc(F)cc4)CC3)c2)CC(C)O1 (configuration not stated)
→ 9% | 0.5% | 0% | .
- COc1ccc(S(=O)(=O)N[C@@H](Cc2ccc(Cl)cc2)C(=O)N2CC[C@@]3(O)CCCC[C@H]3C2)cc1
→ 4% | -1.8% | 0% | -12
- O=C1CCc2cc(S(=O)(=O)NCCC(=O)NC3CCCCC3)ccc2N1
→ -2% | -1.8% | 10% | .
- OCCCNC(=S)Nc1ccc(Oc2ccccc2)cc1
→ -17% | -3.5% | -10% | -9
- COc1ccc(NC(=O)CN(C)C(=O)c2cccc(S(=O)(=O)N3CCN(c4ccc(F)cc4)CC3)c2)cc1
→ . | -0.4% | 0% | .
- Cc1[nH]c(-c2ccc3c(c2)OCO3)nc1C(=O)O
→ 0% | -0.6% | -2% | -6
- O=C(NNc1ccccc1)NC(Cc1ccccc1)C(=O)O (configuration not stated)
→ . | 2.8% | 0% | .
- CC(=O)c1cc(C#N)c(Oc2ccccc2)nc1C
→ . | 2.6% | -5% | .
- O=C(NNC(=O)c1ccncc1)Nc1ccc(N=Nc2ccccc2)cc1
→ . | -1.1% | 11% | .
- Cc1ccc(S(=O)(=O)c2cn(Cc3ccc(F)cc3)c3cc4c(cc3c2=O)OCO4)cc1
→ 1% | -1.0% | -11% | -11
- Cc1cc(C)nc(SC2CCOC2=O)n1 (configuration not stated)
→ -5% | 0.0% | 11% | 1
- Cc1ccc(NC(=O)COC(=O)Cc2csc(-c3cccc(F)c3)n2)cc1C
→ -2% | 3.7% | -3% | -11
- CCCOc1ccc(/C(O)=C2/C(=O)C(=O)N(CCCn3ccnc3)C2c2cccs2)cc1 (configuration not stated)
→ -29% | 5.4% | 0% | -1
- COC(=O)c1ccc(C(=O)N2CCCC(CNC(=O)c3ccc(F)cc3)C2)cc1 (configuration not stated)
→ -6% | -0.8% | 2% | .
- Cc1ccc(C(=O)OCC(=O)N2CCOCC2)cc1
→ -41% | 1.6% | -1% | .
- COc1ccc(NS(=O)(=O)c2ccc(C(=O)Nc3c(C)n(C)n(-c4ccccc4)c3=O)cc2)cc1
→ . | 1.6% | 0% | .
- CCn1c(SCc2nc3scc(-c4ccccc4)c3c(=O)[nH]2)nnc1-c1cccs1
→ 14% | ? | -7% | 0
- CCN(C(=O)C1CCCN(c2nc(-c3ccc(OC)cc3)no2)C1)c1ccccc1F (configuration not stated)
→ 8% | -3.5% | -1% | .
- O=C(NCc1ccncc1)c1ccc(NS(=O)(=O)c2cccc([N+](=O)[O-])c2)cc1
→ . | -0.7% | -17% | .
- COc1ccccc1OCCC(=O)OCC(=O)Nc1ccc2c(c1)OCCO2
→ . | 0.5% | 21% | .
- COc1ccc(CC(=O)NNC(=O)COc2ccc3ccccc3c2)cc1
→ -3% | -3.4% | -13% | 1
- Clc1ccc(Nc2ccc(NCc3ccccc3)nn2)cc1
→ -35% | 2.7% | 0% | -11
- CN(Cc1ccccc1)S(=O)(=O)c1cn(C)cn1
→ -3% | -0.2% | -4% | 5
- O=c1c2c3c(sc2ncn1/N=C/c1ccc(Br)o1)CCCC3
→ -5% | -4.1% | 7% | 0
- O=C1CCCN1CCCNCC(=O)N1c2ccccc2Sc2ccccc21
→ -5% | 0.1% | 3% | -4

Sorted by length of the SMILES (highest first): three of the compounds above
Values in the order – miR-21 reporter | Rango-impB inh | Rango dissoc inh | GLA inh pH 4.5
- CCn1c(SCc2nc3scc(-c4ccccc4)c3c(=O)[nH]2)nnc1-c1cccs1
→ 14% | ? | -7% | 0
- Cc1[nH]c(-c2ccc3c(c2)OCO3)nc1C(=O)O
→ 0% | -0.6% | -2% | -6
- Cn1c(C(=O)NC2CC2)cc(=O)n(C)c1=O
→ 1% | -2.8% | -13% | 4

Continued.
Values in the order – miR-21 reporter | Rango-impB inh | Rango dissoc inh | GLA inh pH 4.5
- NC(=O)c1oc2ccccc2c1NC(=O)Cc1ccccc1
→ 5% | 1.5% | 3% | .
- CN(C(=O)COC(=O)/C=C/c1ccccc1[N+](=O)[O-])c1ccccc1
→ -5% | -3.2% | 6% | -7
- CCn1[nH]c(=O)c(=Nc2c(C)n(C)n(-c3ccccc3)c2=O)cc1-c1ccc(Cl)cc1
→ -5% | 0.0% | -1% | 0
- O=C(c1cccs1)N1CCN=C1SCc1ccc(Cl)cc1
→ -4% | 0.4% | -14% | -16
- CCOC(=O)c1c(C)[nH]c(C(=O)OCC(=O)NC(C)(C)C)c1C
→ 2% | -2.9% | -21% | -7
- O=C(NCc1ccccc1Cl)C1CCC(CNc2nc(=S)[nH]c3ccccc23)CC1 (configuration not stated)
→ -4% | 2.5% | 21% | 1
- NC(=O)C1CCN(C(=O)c2ccc(NC3=NC4CS(=O)(=O)CC4S3)cc2)CC1 (configuration not stated)
→ 4% | 1.4% | 5% | -1
- CC(C)(C)NC(=O)CSc1nc2ccc(NC(=O)CSc3nnc(N)s3)cc2s1
→ 26% | 1.5% | 1% | -6
- Nn1c(SCc2nc3ccccn3c2Br)nnc1-c1cccnc1
→ 1% | -4.8% | -9% | -5
- Cc1[nH]c2c(Cl)cccc2c(=O)c1CN1CCCC1
→ -3% | -1.7% | 1% | -2
- COc1ccccc1N(C)S(=O)(=O)c1ccc(C(=O)NC2=NCCS2)cc1
→ -2% | -2.6% | 1% | -2
- COc1ccc(Br)cc1CN(C)C(C)C(=O)Nc1cc([N+](=O)[O-])ccc1OC (configuration not stated)
→ -5% | -1.2% | -1% | 0
- O=C(COc1ccc(Br)cc1Cl)NC(=S)N1CCc2ccccc21
→ -28% | 1.1% | 5% | 1
- CCCOc1ccc(-c2c(C(=O)N/N=C/C3CCCCC3)nnn2-c2nonc2N)cc1
→ 0% | 8.4% | -23% | .
- COc1ccc(NS(=O)(=O)c2cccs2)c(OC)c1
→ 1% | -0.4% | 30% | 7
- CC(C)(C)N(Cc1ccccc1)C(=O)c1ccc(Br)o1
→ -3% | -4.8% | -6% | .
- COc1ccccc1NC(=O)/C=C1\SCC(=O)N1C
→ 0% | -0.4% | 0% | 6
- Cc1ccc(C(=O)CSC2=C(C#N)C(c3ccco3)C3=C(CCCC3=O)N2)cc1 (configuration not stated)
→ 17% | ? | ? | -2
- Cn1c(=O)n(C/C=C/c2ccccc2)c(=O)c2c1nc1n2CCCN1Cc1ccccc1
→ 13% | -2.4% | 1% | 3
- O=C(CCc1nc(-c2ccccc2)no1)N1CCCC1
→ -36% | 2.0% | -7% | 3
- O=c1c2ccsc2ncn1Cc1ccc(Cl)cc1
→ -9% | -1.3% | 29% | 7
- CN1CCN(c2ccc(-c3ccnn3C(=O)Nc3cccc(C(F)(F)F)c3)cc2)CC1
→ -18% | 2.1% | 34% | -11
- COCCN1CN(S(=O)(=O)c2cccc(Cl)c2)c2nc3ccccc3nc21
→ -1% | -0.8% | 0% | .
- O=C(NCC(c1ccco1)N1CCOCC1)c1cccc(Cl)c1 (configuration not stated)
→ . | ? | -14% | .
- COc1ccc(CCNC(=O)C2CC3Cn4c(nc5cc6ccccc6cc54)C3N2C)cc1 (configuration not stated)
→ 13% | 1.5% | 4% | -8
- COc1cccc(NC(=O)Nc2nnc(Cc3ccccc3)s2)c1
→ -1% | -0.4% | -11% | .
- Cc1ccc(-c2csc(-c3cc(C)on3)n2)cc1
→ -49% | 0.9% | 8% | 5
